# Compound activity: PubChem BioAssay, National Center for Advancing Translational Sciences (NCATS)
# CtBP-E1A blk – CtBP/E1A binding inhibition. AID 651724. 340,000 tested, 0.49% active. activity change, % (test concentration not listed). AlphaScreen GST-E1A/His-CtBP binding, 1536-well; stronger effect = lower value; control for the full effect not named in the record; in the data active means activity change below about -65%; inconclusive means about -30% to -65%; inactive means above about -30%; also: % is scaled to controls: 0 for no effect and ±100 for the full control effect; compound concentration not given in the record
#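 Homogeneous bead-based format: GST-tagged E1A captured on glutathione donor beads, His-tagged CtBP on nickel acceptor beads; compounds precede bead addition by 2 h at 37 °C.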
# D2 agonist – agonists of human D2 dopamine receptor (beta-arrestin); AID 624465; 360,000 tested, 0.084% active; activation, % (no concentration beside the values); DiscoveRx PathHunter D2 beta-arrestin, luminescence, 90 min; 100% = 57 uM dopamine signal; P14416; in the data active = activation above about 40%; inconclusive = about 15% to 40%; inactive = below about 15%; also: compound concentration not given in the record; the text of the record calls up to 30% inactive
# Target sequence (P14416 whole entry, looked up): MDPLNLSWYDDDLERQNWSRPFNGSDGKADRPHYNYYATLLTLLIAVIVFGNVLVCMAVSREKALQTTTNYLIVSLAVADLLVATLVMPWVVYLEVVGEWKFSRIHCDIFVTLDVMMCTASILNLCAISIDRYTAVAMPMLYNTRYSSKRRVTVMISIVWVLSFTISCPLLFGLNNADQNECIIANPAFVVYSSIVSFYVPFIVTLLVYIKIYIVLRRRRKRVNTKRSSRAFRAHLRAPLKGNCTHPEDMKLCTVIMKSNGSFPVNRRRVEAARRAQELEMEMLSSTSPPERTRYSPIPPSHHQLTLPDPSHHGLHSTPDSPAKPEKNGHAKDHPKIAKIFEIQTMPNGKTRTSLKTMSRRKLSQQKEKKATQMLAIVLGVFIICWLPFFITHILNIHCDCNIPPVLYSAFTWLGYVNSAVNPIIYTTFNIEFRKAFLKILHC
#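 Agonist mode: compounds alone added to overnight-plated D2 PathHunter cells for 90 min at 37 C, with 57 uM final dopamine (EC100) defining full response. Beta-arrestin recruitment detected by chemiluminescent reagent, read after 1 h at ambient temperature.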
# TRPML1 blocker – inhibitors of human TRPML1 channel | 390,000 tested, 0.02% active | activity change, negative = inhibition, % (no concentration beside the values) | AID 624415 | TRPML1-inducible cells, Ca2+ dye fluorescence, FDSS; stronger effect = lower value; inhibition of EC80 agonist-evoked calcium signal; in the data active means activity change below about -50%; inconclusive means about -30% to -50%; inactive means above about -30%;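 also: stimulus is agonist 54-4 at its EC80 concentration; % is scaled to controls: 0 for no effect and ±100 for the full control effect; compound concentration not given in the record; the text of the record puts the active cut at -80%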
# Target sequence (Q9GZU1 whole entry, looked up): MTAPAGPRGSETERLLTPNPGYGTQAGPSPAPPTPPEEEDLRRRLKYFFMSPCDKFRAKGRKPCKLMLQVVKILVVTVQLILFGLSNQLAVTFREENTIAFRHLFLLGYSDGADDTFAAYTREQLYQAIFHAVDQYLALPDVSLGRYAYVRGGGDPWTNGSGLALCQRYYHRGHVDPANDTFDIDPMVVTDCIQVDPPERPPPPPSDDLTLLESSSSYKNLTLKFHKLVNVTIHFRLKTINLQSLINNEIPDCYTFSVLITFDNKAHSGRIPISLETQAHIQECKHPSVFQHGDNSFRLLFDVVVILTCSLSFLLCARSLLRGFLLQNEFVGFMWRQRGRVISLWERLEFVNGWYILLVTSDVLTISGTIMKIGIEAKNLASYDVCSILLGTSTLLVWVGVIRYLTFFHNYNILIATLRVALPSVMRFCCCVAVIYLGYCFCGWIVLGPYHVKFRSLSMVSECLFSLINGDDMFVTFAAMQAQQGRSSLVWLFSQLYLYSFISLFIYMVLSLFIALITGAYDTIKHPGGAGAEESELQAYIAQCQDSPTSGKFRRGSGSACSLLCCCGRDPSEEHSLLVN
#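 Calcium fluorescence in TRPML1-DL cells induced overnight with Tet: a 110 s read after compound pin addition, then a 110 s antagonist read after challenge with 54-4 at 4 uM final (EC80).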
# PINK1 expr mod – changes PINK1 expression; 410,000 tested, 0.2% active; AID 624263; PINK1 immunofluorescence, high-content cytometry, 24 h; Potency, µM (top dose mostly 76.6 µM), for inactives: top-dose activation (PINK1 increase), usual class: activators; active = well fitted activation curve with a large enough effect; inconclusive = small, poorly fitted or top-dose-only effect; inactive = flat fitted curve, though single readings scatter; cell line not stated here;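 also: potency is read from the fitted curve at half-maximal effect; % of control where 0% means no effect; nearly all actives have a fitted effect of over 65% in size; a mitochondrial uncoupler was the plate control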
#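 Cells are seeded, rested 12 hours, then given compound at five concentrations or DMSO for 24 hours. After fixation, blocking and antibody staining, PINK1 amount and mitochondrial localization are scored; CCCP serves as control.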
# TRPML1 agonist – human mucolipin-1 channel agonism. TRPML1-expressing cells, Ca2+ dye fluorescence, FDSS; host cell line not named in the record; reference of the full effect not given here. activation, % (concentration not given with the values). 410,000 tested, 0.12% active. AID 624414; in the data active = activation above about 50%; inconclusive = about 30% to 50%; inactive = below about 30%; also: 0% is about no effect; the text of the record puts the active cut at 80%
#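 Tet-induced TRPML1-DL cells, 1,500 per well, cultured overnight, were loaded with a no-wash Ca2+ dye for 45–90 min. Calcium fluorescence was recorded on the FDSS for 110 s after compound addition, before the EC80 agonist (4 uM 54-4) was added.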
# Six1-Eya2 inh – Six1/Eya2 interaction inhibition; activity change, % (no concentration beside the values); Q15475+O00167; AlphaScreen GST-Six1/His-Eya2 binding, biochemical; stronger effect = lower value; control for the full effect not named in the record; 360,000 tested, 0.56% active; in the data active = activity change below about -65%; inconclusive = about -30% to -65%; inactive = above about -30%; also: % is scaled to controls: 0 for no effect and ±100 for the full control effect; compound concentration not given in the record
#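 AlphaScreen luminescence read after one hour at 37 °C in darkness. Pin-transferred compounds met GST-Six1 and His-Eya2 protein (5X stock 250 nM/500 nM) plus glutathione donor and Ni-chelate acceptor beads (5X, 50 ug/mL).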
# Starred values were filed as active, the others as inactive; ? = inconclusive; · = not tested or not shown; [ ] = remark or other dose. Compounds as they come. Share with any hit: about 1%.
smiles,CtBP-E1A blk,D2 agonist,TRPML1 blocker,PINK1 expr mod,TRPML1 agonist,Six1-Eya2 inh
Cc1ccc(NC(=O)CCNS(=O)(=O)c2ccc3c(c2)oc(=O)n3C)cc1C,51,0.3,0,8.2%[38.3 µM],0.2,21
O=C(Cn1cncn1)N/N=C/c1cccc2ccccc12,3,2.2,27,-0.7%,0.0,-5
COc1ccc(Cl)cc1NC(=O)C/C(C)=N/NC(=O)C(=O)NCc1ccccc1,-12,0.5,-8,1.8%,-0.5,-1
COc1ccc(CNC(=O)C/C(C)=N/NC(=O)c2cnccn2)cc1,2,-2.8,15,1.1%,0.3,-1
O=C(Nc1ccc(Cl)cc1)C1CCCN(c2ncnc3c2nc2n3CCCCC2)C1 (stereo not drawn),-10,1.6,6,-0.4%,2.6,-8
COc1ccc(NC(=O)CN(C)C(=O)C(C)Sc2ccccc2)cc1 (stereo not drawn),-3,-0.8,10,2.8%,0.2,4
COc1ccc(C(=O)NC(=S)NNC(=O)c2c(-c3ccccc3)noc2C)cc1OC,-7,-0.5,13,2.5%,1.3,0
O=C(CC[C@H]1O[C@@H](n2cnc3c(NC(=O)c4ccccc4)ncnc32)[C@H](O)[C@@H]1O)NCC1CCCO1 (stereo partly drawn),-17,-4.7,14,6.5%,0.8,6
O=C(NCc1ccc(F)cc1F)c1cc(COc2c(F)cccc2F)on1,-1,-3.3,3,4.1%,-0.4,1
CN(C)S(=O)(=O)c1cccc(NC(=O)c2cc(=O)[nH]c(=O)[nH]2)c1,1,-1.1,-8,0.9%,1.1,2
CC(C)(C)NC(=O)CN1C(=O)NC(c2ccccc2)(c2ccccc2)C1=O,7,1.4,-4,3.2%,0.0,9
COc1cc(/C=C/c2[nH]c(=O)[nH]c(=O)c2[N+](=O)[O-])cc([N+](=O)[O-])c1O,·,-10,16,-0.9%,1.1,-18
COc1cc(/C=C2/SC(=S)N(c3ccccc3)C2=O)ccc1Oc1nc(N2CCOCC2)nc(N2CCOCC2)n1,-4,-1.3,6,2.6%,1.1,6
Cc1ccc(C(=O)NC(NCC2CCCO2)C(Cl)(Cl)Cl)cc1 (stereo not drawn),-9,-0.2,-5,10%,1.8,4
CCOC(=O)C(NC(=O)c1ccccc1Cl)(Nc1ccc(C)c(C)c1)C(F)(F)F (stereo not drawn),4,2.5,4,-3.5%,0.0,-6
CCCCN(C(=O)c1cc2ccccc2o1)c1c(N)n(CCC)c(=O)[nH]c1=O,8,-4.3,-9,-0.7%,0.1,-2
COc1ccc(CN2C(=O)CCC2(C)C(=O)NCc2cccnc2)c(OC)c1 (stereo not drawn),1,1.2,-17,2.0%,0.0,6
Cc1ccc2cc(C)c(N3CCN(c4ccc(F)cc4)CC3)nc2c1,2,11,-3,-0.9%,1.9,2
O=C(O)C1CC(=O)N(Cc2ccc(F)cc2)C1 (stereo not drawn),24,-1.7,6,0.8%,-0.1,0
Cc1onc(-c2c(F)cccc2Cl)c1C(=O)OCC(=O)NC1CC1,·,1.0,16,1.2%,0.7,-5
COC(=O)c1ccc(N/C(=N/S(=O)(=O)c2ccccc2)c2ccccc2)cc1,-21,-2.4,10,0.3%,-0.1,-17
COc1ccc2c(CC(=O)N[C@@H](Cc3ccccc3)C(=O)O)cc(=O)oc2c1C,-1,-1.8,2,-0.5%,0.1,0
CN(C(=O)CSc1nnc(-c2cccs2)o1)C1CCS(=O)(=O)C1 (stereo not drawn),-2,0.0,-9,1.4%,0.3,2
Cc1cccc(-n2ncc3c(N4CCC(C)CC4)ncnc32)c1,9,12,30,11%,0.1,10
Cc1ccc(C(=O)Nc2ccc(-c3cn4cccnc4n3)cc2)cc1C,·,·,-6,3.7%,-1.0,·
COCCn1c(-c2ccccc2)nc2oc3ccccc3c(=O)c2c1=O,4,-3.3,-1,-0.9%,-1.4,-1
CC(C)OCCCNC(=O)c1cn(C)c2ccc(S(=O)(=O)N3CCCC3)cc2c1=O,9,-4.3,-7,-0.9%,-0.9,9
CC1=C/C(=N\NC(=O)c2ccccc2)CC1,1,-0.2,-10,2.0%,-0.7,3
Cc1ccc([N+](=O)[O-])cc1N(CC(=O)Nc1ccc(S(=O)(=O)Nc2cccc(C(F)(F)F)c2)cc1)S(C)(=O)=O,-4,-1.1,-17,?,0.6,5
C=C(C)CSc1nc2ncccc2[nH]1,-9,-1.5,14,0.9%,-0.3,0
OC[C@@H]1CN(Cc2cccnc2)C[C@H](n2cnc3c(N4CCCC4)ncnc32)O1,5,-5.3,·,1.0%,-0.5,-2
COc1ccc(OC)c(NC(=O)NCc2cccnc2)c1,-19,-6.9,-13,-0.9%,1.4,-15
Cc1cc(N2CCOCC2)nc2ccc(NC(=S)NCCN(C)C)cc12,5,6.6,27,0.3%,1.3,-9
CCCC(=O)Nc1cc(OC)c(NC(=O)NC2CCCCC2)cc1OC,9,1.7,3,·,-0.3,-2
O=C1CC(C(=O)Nc2ccc(C(=O)N3CCOCC3)cc2)C2(CCCCC2)O1 (stereo not drawn),-1,-3.5,31,1.4%,-0.5,3
Cc1ccsc1/C=N/n1cnc2sc(C)c(C)c2c1=O,-4,2.5,-3,14%,1.1,9
CC(C)CC(=O)NC(=S)Nc1ccccc1F,1,-2.9,-6,1.8%,-0.3,5
CCOC(=O)c1ccc(NCc2nc3ccccc3[nH]2)cc1,0,8.6,-9,2.9%,-0.4,-8
C[C@H](CO)N1C[C@H](C)[C@@H](CN(C)S(=O)(=O)c2ccccc2)Oc2ccc(NC(=O)C3CC3)cc2C1=O,-10,7.6,0,0.2%,-0.3,11
CCCCCCCCN1C(=O)[C@H](CC(=O)N2CCCC2)C[C@@]2(C(=O)OCC)CCCC=C12,-23,·,·,0.5%,-0.4,12
OCCN1CCN(C(=S)c2ccc(Cl)c(Cl)c2)CC1,0,-0.7,-7,-2.0%,-0.6,?
CC(C)COc1ccc(C(=O)CCN2CCCCC2)cc1,4,-3.7,6,0.8%,4.8,-2
CN(C)CCNc1ncnc2c1ncn2[C@H]1CN(Cc2ccc(-c3ccccc3)cc2)C[C@@H](CO)O1,-8,-4.3,·,1.7%,0.3,-9
CC(=O)c1c(-c2ccc(Cl)cc2Cl)noc1C,17,-19,-15,1.7%,0.5,23
OC1CCN(Cc2nc(Cc3ccccc3Cl)no2)CC1,-5,-3.0,-10,3.4%,0.5,6
CC1(C(=O)NS(=O)(=O)c2ccccc2C(F)(F)F)CCN1C(=O)CCc1ccccc1 (stereo not drawn),12,-1.9,·,1.2%,0.2,6
O=[N+]([O-])c1ccc(-n2ccnc2)cc1,-1,0.2,2,-0.4%,0.3,3
COC(=O)C(C(=O)OC)c1ncc(C(F)(F)F)cc1Cl,·,4.5,14,-1.1%,0.0,-1
CCN(CC)CC(=O)c1c(N)n(Cc2ccccc2)c(=O)n(C)c1=O,3,-3.8,4,0.0%,-0.6,-12
Cc1ccc(CNC(=O)COC(=O)c2ccc(S(=O)(=O)N3CCOCC3)cc2)cc1,-2,0.7,-8,3.6%,0.1,2
O=C1C2C3C=CC(C4CC34)C2C(=O)N1/N=C/c1ccc(-c2ccc([N+](=O)[O-])cc2)o1 (stereo not drawn),3,-1.9,1,?,-0.7,-8
CCCCCn1c(=O)c(F)cn(Cc2ccc(OC)c([N+](=O)[O-])c2)c1=O,-10,-3.8,9,1.8%,-0.9,-8
CSc1cccc(NC(=O)CN(C)S(=O)(=O)c2ccccc2)c1,6,-3.4,3,·,2.2,3
Cc1cccc(C(=O)N2CCN(Cc3nc4sc5c(c4c(=O)[nH]3)CCCC5)CC2)c1,2,-4.9,9,1.4%,-0.6,-8
COc1cccc(OCc2cc(C(=O)N(C)Cc3nccn3C)no2)c1,·,-3.6,-9,2.2%,0.0,0
O=[N+]([O-])c1ccc(/C=N/NC(=S)Nc2ccccc2)o1,-11,0.4,-10,0.2%,-0.2,-21
CCc1noc(C)c1C(=O)N1CC(C)OC(C)C1 (stereo not drawn),-5,1.3,12,0.3%,-0.5,-9
Cc1cccc(C)c1OC(=O)CSc1nnc(-c2ccccc2O)o1,6,-3.5,26,?,4.5,3
COC(=O)C1=C(N)OC2=C(C(=O)CCC2)C1c1ccc2c(c1)OCO2 (stereo not drawn),·,5.7,21,0.2%,-1.3,0
Cc1cc(C)c(C)c(S(=O)(=O)NCc2ccc(C(=O)N3CCCCC3)cc2)c1C,-3,-1.5,8,0.1%,-1.0,-7

# A stretch from further up:
smiles,CtBP-E1A blk,D2 agonist,TRPML1 blocker,PINK1 expr mod,TRPML1 agonist,Six1-Eya2 inh
CC1(C(=O)NS(=O)(=O)c2ccccc2C(F)(F)F)CCN1C(=O)CCc1ccccc1 (stereo not drawn),12,-1.9,·,1.2%,0.2,6
O=[N+]([O-])c1ccc(-n2ccnc2)cc1,-1,0.2,2,-0.4%,0.3,3
COC(=O)C(C(=O)OC)c1ncc(C(F)(F)F)cc1Cl,·,4.5,14,-1.1%,0.0,-1
CCN(CC)CC(=O)c1c(N)n(Cc2ccccc2)c(=O)n(C)c1=O,3,-3.8,4,0.0%,-0.6,-12

# (further entries)
smiles,CtBP-E1A blk,D2 agonist,TRPML1 blocker,PINK1 expr mod,TRPML1 agonist,Six1-Eya2 inh
COc1ccc(Cl)cc1NC(=S)Nc1ccccc1C,3,-3.9,37,1.3%,-0.2,10
CCOc1ccc2nc(NC(=O)c3ccccn3)sc2c1,?,-1.8,-24,7.2%,0.5,?
Nc1cc(N)nc(SCC(=O)Nc2ccc3c(c2)OCCCO3)n1,-16,-0.3,11,-5.4%,2.0,0
O=C(CSc1ccc2nnc(-c3cccnc3)n2n1)c1ccccc1,-9,-0.2,1,-0.2%,0.0,-8
Cc1c(C(=O)NCc2ccccc2)sc2nc3n(c(=O)c12)CCC3,·,·,3,3.6%,-0.1,·
CCOC(=O)C1(C(F)(F)F)N=C(C(F)(F)F)Nc2ccc(F)cc21 (stereo not drawn),1,-4.1,-12,12%,-0.4,3
CCCC(=O)Nc1cc(C(=O)O)ccc1Sc1ccc(C)cc1,2,-5.5,-6,1.5%,0.1,-6
CC(C)(C)NC(=O)CN(C(=O)C1(C)CC(=O)N=C2C=CC=CN21)C1CCCC1 (stereo not drawn),7,-2.9,-3,-4.2%[38.3 µM],-0.1,5
Cc1c(NC2(C#N)CCCCC2)c(=O)n(-c2ccccc2)n1C,·,5.4,-11,0.8%,-0.7,-10
COc1cccc(C(CNC(=O)C2CCN(C(=O)Nc3ccccc3)CC2)N(C)C)c1 (stereo not drawn),4,-2.0,0,0.5%,0.8,0
CC(=O)NCCOC(=O)Nc1sc(=S)n(C)c1C,-2,-1.5,32,2.7%,-0.3,6
